STAT3 binder – STAT3 binders, primary screen, biochemical, small molecule microarray, single point, set 2 | His-STAT3 binding, anti-His fluorescence | calls only | hit rate 0.2% among 17,000;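 active means compounds whose four printed spots each show fluorescence over background unusually high for their array block, chance value under 7%; compounds were printed on slides so no solution concentration is given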;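 further: about 2 pmol printed per array spot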
Target sequence (P40763 whole entry, looked up): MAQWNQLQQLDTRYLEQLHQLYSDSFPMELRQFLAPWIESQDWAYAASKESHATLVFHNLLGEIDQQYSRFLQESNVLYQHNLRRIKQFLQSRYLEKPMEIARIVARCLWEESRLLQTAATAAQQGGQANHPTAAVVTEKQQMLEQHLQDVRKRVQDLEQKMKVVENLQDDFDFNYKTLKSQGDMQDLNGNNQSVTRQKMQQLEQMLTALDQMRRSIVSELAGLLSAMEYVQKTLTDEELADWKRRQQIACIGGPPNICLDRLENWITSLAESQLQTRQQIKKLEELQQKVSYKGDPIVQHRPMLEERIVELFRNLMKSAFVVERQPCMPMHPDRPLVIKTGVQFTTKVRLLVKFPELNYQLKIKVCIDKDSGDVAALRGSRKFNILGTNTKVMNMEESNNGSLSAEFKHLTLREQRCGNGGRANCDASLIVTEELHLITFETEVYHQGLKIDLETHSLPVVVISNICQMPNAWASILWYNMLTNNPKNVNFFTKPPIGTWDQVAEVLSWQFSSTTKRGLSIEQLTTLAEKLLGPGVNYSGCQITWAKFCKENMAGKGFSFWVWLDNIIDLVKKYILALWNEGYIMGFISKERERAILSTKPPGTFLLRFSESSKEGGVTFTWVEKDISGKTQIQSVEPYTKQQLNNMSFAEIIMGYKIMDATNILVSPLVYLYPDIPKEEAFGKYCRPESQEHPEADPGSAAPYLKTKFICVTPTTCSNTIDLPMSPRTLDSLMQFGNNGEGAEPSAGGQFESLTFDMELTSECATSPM
c-Myc SMM – binders of human c-Myc, primary screen, biochemical, small molecule microarray, anti-His fluorescence; calls only; Myc proto-oncogene protein (Homo sapiens), P01106; hit rate 1.5% among 17,000; His-c-Myc binding;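 active means spot fluorescence over background with P-value below 7% in all four replicate spots, showing protein binding; compounds were printed on slides so no solution concentration is given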;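 further: score is binary with 100 for all four spots passing and 0 otherwise; about 2 pmol printed per array spot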
p53 mut binder – binders of human mutant p53, primary screen, biochemical, small molecule microarray, anti-GST fluorescence; mutant tumor protein p53 (GST-tagged), Homo sapiens; calls only; small molecule microarray binding; hit rate 0.4% among 17,000;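 active means compounds whose four printed spots each glow above background more than chance allows, each with a p-value under 7%; compounds were printed on slides so no solution concentration is given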;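 further: about 2 pmol printed per array spot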
ID4 binder – binders of human ID4 protein, primary screen, biochemical, small molecule microarray, single point; DNA-binding protein inhibitor ID-4 (Homo sapiens), P47928; Flag-ID4 binding, fluorescence F/B; hit rate 1.2% among 31,000; calls only;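 active means spot signal over background at p below 0.07 in all four prints; compounds were printed on slides so no solution concentration is given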;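 further: a binder raises fluorescence above local background on the spot; about 2 pmol printed per array spot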
Target sequence (P47928 whole entry, looked up): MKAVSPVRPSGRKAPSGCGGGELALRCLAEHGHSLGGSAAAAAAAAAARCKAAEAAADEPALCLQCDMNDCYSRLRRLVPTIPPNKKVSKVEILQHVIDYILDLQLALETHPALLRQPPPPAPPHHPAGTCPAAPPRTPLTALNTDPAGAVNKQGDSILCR
Calls only; i = inactive; x = no result given; + = active, no number. These rows are one share of the data. The share of hits here may be higher or lower than overall.

SMILES | STAT3 binder | c-Myc SMM | p53 mut binder | ID4 binder
C[C@@H]1CN([C@H](C)CO)C(=O)c2cc(N(C)C)ccc2O[C@@H](C)CCCCO[C@@H]1CN(C)C(=O)c1ccncc1 | i | i | i | i
COc1ccc2c(c1)c(=O)oc1cc(OCC(=O)Nc3cc(C)cc(C)c3)ccc12 | i | i | i | i
C[C@H](CO)N1C[C@H](C)[C@H](CN(C)C(=O)Nc2ccc(C(F)(F)F)cc2)Oc2c(NC(=O)Nc3cccc4ccccc34)cccc2C1=O | i | i | i | +
COc1cc(O)c(C(=O)c2c(O)cc(C)cc2O)c(C(=O)O)c1 | i | i | i | i
CC(C)NC(=O)Nc1ccc2c(c1)C(=O)N([C@H](C)CO)C[C@@H](C)[C@@H](CN(C)S(=O)(=O)c1cccs1)OCCCC[C@H](C)O2 | i | i | i | i
CC(=O)c1cccc(NC(=S)N2CCN(CCN3C(=O)c4cccc5cccc(c45)C3=O)CC2)c1 | i | i | i | i
C[C@@H]1CN([C@@H](C)CO)C(=O)Cc2cc(NC(=O)Cc3ccccc3)ccc2O[C@@H]1CN(C)C(=O)Nc1ccc2c(c1)OCO2 | i | i | i | i
Cc1noc(C)c1S(=O)(=O)Nc1ccc2c(c1)CC(=O)N([C@H](C)CO)C[C@@H](C)[C@H](CN(C)Cc1ccc(-c3ccccc3)cc1)O2 | i | i | i | i
COCCCNC(=O)[C@@]1(Cc2ccccc2I)c2ccccc2C(=O)N(Cc2ccccc2OC)[C@H]1c1ccc(CO)cc1 | i | i | i | i
COc1ccc(CN(C)C[C@@H]2Oc3c(NS(C)(=O)=O)cccc3C(=O)N([C@@H](C)CO)C[C@H]2C)cc1 | i | i | i | i
COc1cc([N+](=O)[O-])cc(CN2CCN(CCO)CC2)c1O | i | i | i | i
O=C(Nc1sccc1C(=O)N1CCOCC1)c1cc2ccccc2oc1=O | i | i | i | i
Cc1nc2nc[nH]n2c(=O)c1NS(=O)(=O)c1cccs1 | i | i | i | i
CNC[C@@H]1OCCCC[C@@H](C)Oc2ccc(NS(=O)(=O)c3cccs3)cc2C(=O)N([C@@H](C)CO)C[C@H]1C | i | i | i | +
COc1ccc(/C=C2\SC(=S)N(CCCC(=O)NC34CC5CC(CC(O)(C5)C3)C4)C2=O)cc1 | i | i | i | i
C[C@H](CO)N1C[C@H](C)[C@H](CN(C)S(=O)(=O)c2ccc(-n3cccn3)cc2)OCc2cn(nn2)CCCC1=O | i | i | i | i
C[C@@H]1CN([C@@H](C)CO)C(=O)c2cccc(NS(C)(=O)=O)c2O[C@H]1CN(C)Cc1ccc(C(F)(F)F)cc1 | i | i | i | i
CNC[C@H]1Oc2ccc(NC(=O)CCN3CCOCC3)cc2CC(=O)N([C@@H](C)CO)C[C@@H]1C | i | i | i | +
C[C@H](CO)N1C[C@H](C)[C@H](CN(C)S(=O)(=O)c2ccccc2C#N)OCc2cnnn2CCCC1=O | i | i | i | x
COc1ccc(-c2nc3ccccc3c(=O)n2CCCN2CCOCC2)cc1 | i | i | i | i
C[C@@H]1CCCCO[C@@H](CN(C)S(=O)(=O)c2ccccc2)[C@H](C)CN([C@H](C)CO)C(=O)c2cc(NC(=O)Nc3ccccc3)ccc2O1 | i | i | i | i
COc1cc2c(cc1O)C(c1cccs1)N(Cc1sc3ccccc3c1Cl)CC2 (stereo not drawn) | i | i | i | i
C[C@@H]1CN([C@@H](C)CO)C(=O)c2cccc(NC(=O)Nc3ccc(F)cc3)c2O[C@H]1CN(C)Cc1ccc(C(=O)O)cc1 | i | i | i | i
C[C@@H]1CN([C@@H](C)CO)C(=O)Cc2cc(NS(C)(=O)=O)ccc2O[C@H]1CN(C)C(=O)NC1CCCCC1 | i | i | i | i
C[C@H]1CCCCO[C@@H](CN(C)C)[C@@H](C)CN([C@@H](C)CO)C(=O)c2cc(NC(=O)Nc3ccccc3)ccc2O1 | i | i | i | i
N=c1ncn(Cc2ccccc2)c2nc(SCC(=O)O)[nH]c12 | i | i | i | i
C[C@@H]1CN([C@@H](C)CO)C(=O)c2cc(N(C)C)ccc2O[C@@H]1CN(C)C(=O)Nc1ccc2c(c1)OCO2 | i | i | i | i
O=C1O[C@H](c2ccccc2)[C@H](c2ccccc2)N2[C@H]1[C@@H](C(=O)N1CCN(c3ncccn3)CC1)[C@]1(C(=O)Nc3ccc(C#CC4(O)CCCCCC4)cc31)[C@H]2c1ccc(O)cc1 | i | i | i | i
c1ccc2nc(C3=NCCN3)ccc2c1 | i | i | i | i
COCC1OC(OC(C)(C)C2CCC3(C)C=C(C4CCC5C4(C)CC(O)C4OC(C(C)(C)OC6OC(CO)C(O)C(O)C6NC(C)=O)CCC45C)CCC3O2)C(NC(C)=O)C(O)C1O (stereo not drawn) | i | + | i | i
CNC[C@H]1Oc2ccc(NS(C)(=O)=O)cc2CC(=O)N([C@H](C)CO)C[C@@H]1C | i | i | i | i
C[C@@H]1CN([C@@H](C)CO)C(=O)Cc2cc(NC(=O)Cn3cnnn3)ccc2O[C@@H]1CN(C)Cc1ccc(C(F)(F)F)cc1 | i | i | i | i
CC(=O)NCCCC[C@@H]1NC(=O)[C@@H]2C[C@H](C(=O)NCc3ccc(F)cc3)[C@H](c3ccc(O)cc3)N2C1=O | i | i | i | i
C[C@@H]1CN([C@@H](C)CO)C(=O)c2cc(NC(=O)CCC(F)(F)F)ccc2O[C@@H]1CN(C)C(=O)Nc1ccccc1 | i | i | i | i
C[C@@H]1CN([C@@H](C)CO)C(=O)Cc2cc(NC(=O)c3ccncc3)ccc2O[C@@H]1CN(C)S(=O)(=O)c1cccs1 | i | i | i | i
COc1cccc(C2CC(C(F)(F)F)n3nc(C(=O)Nc4cc(C)nn4-c4ccccc4)cc3N2)c1 (stereo not drawn) | i | i | i | i
C[C@H]1CN([C@@H](C)CO)C(=O)c2cc(NC(=O)Cc3cn(C)c4ccccc34)ccc2O[C@@H]1CN(C)CC1CC1 | i | i | i | i
CNC[C@H]1Oc2ccc(NC(=O)Nc3ccc4c(c3)OCO4)cc2CC(=O)N([C@H](C)CO)C[C@@H]1C | i | i | i | i
Cc1ccc(-n2ncc(C(=O)NCc3ccccn3)c2NC(=O)c2ccco2)cc1C | i | i | i | i
COc1ccc(S(=O)(=O)N(C)C[C@H]2Oc3ccc(NC(=O)CCCN(C)C)cc3CC(=O)N([C@@H](C)CO)C[C@H]2C)cc1 | i | i | i | i
C[C@@H]1CN([C@H](C)CO)C(=O)c2cccc(NC(=O)c3ccncc3)c2O[C@H]1CN(C)C(=O)NC1CCCCC1 | i | i | i | i
CCOc1ccc(C(Nc2cccnc2)c2cc(Cl)c3cccnc3c2O)cc1 (stereo not drawn) | i | i | i | i
CN1C(=O)C2C(C1=O)C1C=C(CCCO)C2C(c2ccc(CN3CCCC3)cc2)N1Cc1sc2ccccc2c1Cl (stereo not drawn) | i | i | i | i
COc1ccc(Nc2nc(N)nc(CSc3nc4cc(OC)ccc4s3)n2)cc1 | i | i | i | i
CN1CCN(C(=O)C2=C[C@@H](c3csc4ccccc34)C[C@@H](OCCCCO)O2)CC1 | i | i | i | i
C[C@H](CO)N1C[C@H](C)[C@@H](CN(C)Cc2ccc(C(=O)O)cc2)Oc2c(NC(=O)Nc3cccc4ccccc34)cccc2C1=O | i | i | i | i
C[C@H](CO)N1C[C@H](C)[C@@H](CN(C)Cc2ccc(-c3ccccc3)cc2)Oc2ccc(NC(=O)c3ccncc3)cc2C1=O | i | i | i | x
COC(=O)C(NC(=O)c1cccc(NC=O)c1O)C(C)O (stereo not drawn) | i | i | i | x
C=CCOc1ccc2ccccc2c1CNc1nn[nH]n1 | i | i | i | i
COc1ccccc1CCNC(=O)c1cc(-c2cccs2)nc2ccccc12 | i | i | i | i
C[C@@H]1CN([C@H](C)CO)C(=O)c2cccc(NC(=O)Nc3cccc4ccccc34)c2O[C@@H]1CN(C)S(=O)(=O)c1cccs1 | i | i | i | i
CCOC(=O)CS(=O)(=O)c1nc(-c2ccc(F)cc2)cc(C(F)(F)F)n1 | i | i | i | i
Cc1ccc(S(=O)(=O)NC(C)(C)CSc2nnc(N)s2)cc1 | i | i | i | i
CNC[C@H]1OCCCC[C@H](C)Oc2ccc(NS(=O)(=O)c3cccs3)cc2C(=O)N([C@@H](C)CO)C[C@H]1C | i | i | i | i
C[C@@H]1CCCCO[C@H](CN(C)S(=O)(=O)c2cccs2)[C@H](C)CN([C@@H](C)CO)C(=O)c2cc(NC(=O)Cc3ccccc3)ccc2O1 | i | i | i | i
C[C@@H]1CCCCO[C@H](CN(C)Cc2ccncc2)[C@H](C)CN([C@H](C)CO)C(=O)c2cc(NC(=O)c3ccncc3)ccc2O1 | i | i | i | i
C[C@H]1CN([C@@H](C)CO)C(=O)c2cc(NC(=O)Cn3cnnn3)ccc2O[C@@H]1CN(C)Cc1ccncc1 | i | i | i | i
C[C@@H]1CN([C@H](C)CO)C(=O)c2cccc(NC(=O)C3CCOCC3)c2O[C@H]1CN(C)Cc1ccc(C(=O)O)cc1 | i | i | i | i
C[C@H](CO)N1C[C@H](C)[C@@H](CN(C)C(=O)Nc2ccc(C(F)(F)F)cc2)Oc2c(cccc2N(C)C)C1=O | i | i | i | i
C[C@H]1CCCCO[C@@H](CN(C)S(=O)(=O)c2cccs2)[C@@H](C)CN([C@@H](C)CO)C(=O)c2cc(N(C)C)ccc2O1 | i | i | i | i

Later entries.
SMILES | STAT3 binder | c-Myc SMM | p53 mut binder | ID4 binder
C[C@@H]1CN([C@H](C)CO)C(=O)c2cc(N(C)C)ccc2O[C@@H]1CN(C)S(=O)(=O)c1ccccc1 | i | i | i | i
COC(=O)[C@]1(CCC(=O)OC(C)(C)C)N=C(c2ccc(OCCCO)cc2)O[C@@H]1c1ccccc1N=[N+]=[N-] | i | i | i | i
C[C@@H]1CN([C@@H](C)CO)C(=O)Cc2cc(NC(=O)NC3CCCCC3)ccc2O[C@@H]1CN(C)Cc1ccc(C(=O)O)cc1 | i | i | i | i
O=c1c(O)c(-c2ccccc2)oc2cc(O)ccc12 | i | i | i | i
O=S(=O)(NCC(O)Cn1c2ccc(Cl)cc2c2cc(Cl)ccc21)c1ccccc1 (stereo not drawn) | i | i | i | i
C[C@@H]1CCCCO[C@H](CN(C)Cc2ccncc2)[C@H](C)CN([C@H](C)CO)C(=O)c2cc(NS(=O)(=O)c3cccs3)ccc2O1 | i | i | i | x
O=C(O)CC(Cn1[nH]nnc1=S)c1ccccc1 (stereo not drawn) | i | i | i | i
Cn1cc(SCC(=O)O)c2ccccc21 | i | i | i | i
C[C@@H]1CN([C@@H](C)CO)C(=O)c2cc(NS(=O)(=O)c3ccccc3)ccc2O[C@@H](C)CCCCO[C@H]1CN(C)C(=O)c1ccncc1 | i | i | i | i
C[C@@H]1CCCCO[C@H](CN(C)C(=O)c2ccncc2)[C@@H](C)CN([C@H](C)CO)C(=O)c2cc(NS(=O)(=O)c3ccc(F)cc3)ccc2O1 | i | i | i | x
C[C@@H]1CN([C@@H](C)CO)C(=O)c2cccc(NS(=O)(=O)c3cccs3)c2O[C@H]1CN(C)C(=O)Nc1cccc2ccccc12 | i | i | i | i
CNC[C@H]1OCCCC[C@H](C)Oc2ccc(NS(=O)(=O)c3c(C)noc3C)cc2C(=O)N([C@@H](C)CO)C[C@H]1C | i | i | i | i
C[C@@H]1CCCCO[C@H](CN(C)C)[C@@H](C)CN([C@H](C)CO)C(=O)c2cc(NC(=O)c3ccncc3)ccc2O1 | i | i | i | i
C[C@@H]1CN([C@@H](C)CO)C(=O)Cc2cc(NS(C)(=O)=O)ccc2O[C@@H]1CN(C)CC1CC1 | i | i | i | i
C[C@@H]1CN([C@@H](C)CO)C(=O)c2cccc(NC(=O)Nc3ccc(C(F)(F)F)cc3)c2O[C@H]1CN(C)S(=O)(=O)c1cccs1 | i | i | i | i
C[C@@H]1CN([C@@H](C)CO)C(=O)Cc2cc(NC(=O)c3ccncc3)ccc2O[C@@H]1CN(C)C(=O)Nc1ccc(F)cc1 | i | i | i | i
